# UCH37 DUB inh: inhibitors of human deubiquitinating enzyme UCH37; actives 0.33% (n = 330,000); inhibition, % (test concentration not listed); purified proteasome/UCH37, Ub-AMC cleavage fluorescence; Q9Y5K5; AID 588478;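 active = mean of two replicates above 20%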;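 note: 0% = compound-free wells with enzyme and 100% = wells lacking proteasome; stock transfer was 100 nL into about 20 µL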
# Target sequence (Q9Y5K5 whole entry, looked up): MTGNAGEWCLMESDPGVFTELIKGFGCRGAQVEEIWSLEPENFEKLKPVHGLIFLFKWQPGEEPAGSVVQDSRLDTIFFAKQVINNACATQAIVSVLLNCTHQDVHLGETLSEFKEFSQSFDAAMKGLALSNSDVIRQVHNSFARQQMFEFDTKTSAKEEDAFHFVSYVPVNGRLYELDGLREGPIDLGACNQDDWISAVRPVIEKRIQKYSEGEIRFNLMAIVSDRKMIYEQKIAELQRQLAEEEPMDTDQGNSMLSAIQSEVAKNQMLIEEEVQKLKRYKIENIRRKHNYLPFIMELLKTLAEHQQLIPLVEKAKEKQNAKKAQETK
#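 Reagent: Ub-AMC substrate; assay system: Proteasome-associated human UCH37 deubiquitinase; controls: no-proteasome and no-compound wells; read-out: % inhibition of Ub-AMC cleavage fluorescence; timing: 30 min preincubation with enzyme, 25 min cleavage at room temperature; signal: AMC fluorescence from Ub-AMC cleavage, excitation 355 nm, emission 460 nm; buffer or medium: Tris-HCl pH 7.4 plus ovalbumin, ATP-MgCl2, DTT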
# Beta2AR agonist: activates human beta-2 adrenergic receptor causing internalization | Am2.2-beta2AR cells, FAP receptor internalization, flow cytometry; reference of the scale not given here | actives 0.43% (n = 340,000) | response, % (test concentration not listed);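 active = response above a set limit, near 3 SD of response in nonfluorescent compounds, cut at about 42% in these data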;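 note: stock transfer was 100 nL into about 11 µL; a reference agonist was the positive control; negative values mostly stem from fluorescent compounds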
# ALR H2O2 inh: inhibitors of human sulfhydryl oxidase ALR; inhibition, % (concentration not given with the values); purified ALR, DTT oxidation, H2O2 HRP-luminol luminescence; actives 3.8% (n = 290,000); AID 485317; P55789;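 active = mean and each replicate at 75% or more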;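 note: stock transfer was 7.5 nL into about 7.5 µL; 0% = neutral wells and 100% = wells with inactivated enzyme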
# FGF22 binding: binders of recombinant human FGF22 by thermal shift; Q9HCT0; SYPRO orange fluorescence; percent of sucrose octasulfate shift, DMSO zero; calls only at 9.99 µM; actives 1.5% (n = 340,000); AID 651658;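 active = melting point raised past a set limit in the mean and every replicate; three in four hits are not shown here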
# Target sequence (Q9HCT0 whole entry, looked up): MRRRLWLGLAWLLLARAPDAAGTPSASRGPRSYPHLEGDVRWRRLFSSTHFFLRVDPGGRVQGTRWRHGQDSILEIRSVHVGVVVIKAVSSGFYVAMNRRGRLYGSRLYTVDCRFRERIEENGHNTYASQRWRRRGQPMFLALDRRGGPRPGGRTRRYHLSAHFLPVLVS
# Ecoli growth: blocks Escherichia coli growth; AID 1053175; OD600 absorbance (concentration not given with the values); actives 0.21% (n = 330,000); OD600, 23 h; stronger effect = lower value;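 active = OD600 absorbance below the run mean of sample wells minus 3.6 SD, in any replicate, cut at about 0.56 in these data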;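 note: stock transfer was 300 nL into about 60 µL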
# Ecoli rRNA inh: inhibits bacterial ribosomal RNA function over humanized ribosomes; E. coli WT GFP vs humanized-ribosome RFP mutants, fluorescence, 24 h; stronger effect = lower value; DMSO median 0, no signal -100; actives 1.6% (n = 350,000); GFP signal change (wild-type ribosome), % (test concentration not listed);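 active = significant combined selectivity score with lowered wild-type GFP, culture density cut under 30%, mutant RFP and density less affected; inactive = any of these conditions unmet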; note: one replicate is shown; some compounds called inactive have numbers as strong as hits
# HNF4A DNA FP: change in binding of human HNF4 alpha to DNA; HNF4a-FITC DNA binding, fluorescence polarization, 1 h; activity change, % at 10 µM; actives 0.3% (n = 360,000); AID 1224865; in the data active = activity change above about 30%, passing the limit was not always enough;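 note: controls were the assay level and a saturating level of protein; the project sought stronger binding though the title names inhibitors; some compounds called inactive have numbers as strong as hits; positive values seem to mean higher polarization but the record does not say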
# Target sequence (P41235 whole entry, looked up): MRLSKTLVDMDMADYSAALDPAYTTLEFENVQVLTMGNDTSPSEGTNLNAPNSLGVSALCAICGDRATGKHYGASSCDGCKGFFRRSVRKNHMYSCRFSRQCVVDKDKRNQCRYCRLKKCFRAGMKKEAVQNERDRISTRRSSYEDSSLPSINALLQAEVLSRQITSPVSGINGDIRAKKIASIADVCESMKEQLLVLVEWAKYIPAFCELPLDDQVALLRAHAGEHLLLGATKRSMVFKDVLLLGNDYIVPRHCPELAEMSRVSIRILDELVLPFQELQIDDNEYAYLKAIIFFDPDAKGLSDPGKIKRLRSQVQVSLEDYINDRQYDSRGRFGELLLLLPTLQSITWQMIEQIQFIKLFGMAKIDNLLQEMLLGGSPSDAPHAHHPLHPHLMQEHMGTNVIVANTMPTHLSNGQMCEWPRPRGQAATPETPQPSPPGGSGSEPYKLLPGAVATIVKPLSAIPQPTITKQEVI
# Ecoli rRNA inh OD600: second read-out of Ecoli rRNA inh, no call of its own (marks repeat the call); OD600 change, %; measured here: OD600 growth;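 optical density of the mix in the first replicate; 0 = DMSO median and -100 = no signal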
# Ecoli rRNA inh RFP: further read-out of Ecoli rRNA inh, marked with its call; RFP signal change, %; measured here: RFP humanized mutant strains;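 first replicate; 0 = DMSO median and -100 = no signal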
# * hit, by the source's call; i = inactive; . = no result given; + = active, no number. An excerpt. The share of hits here may be higher or lower than overall.
SMILES,UCH37 DUB inh,Beta2AR agonist,ALR H2O2 inh,FGF22 binding,Ecoli growth,Ecoli rRNA inh,Ecoli rRNA inh OD600,Ecoli rRNA inh RFP,HNF4A DNA FP
CCn1c(SCC(=O)NC(=O)c2ccccc2OC)nc2ccccc21,4.3,-4,3,i,0.69,-4,4,3.9,2.5
O=C(c1ccc2c(c1)OCO2)C1CCCN(Cc2cc(F)ccc2-n2cccn2)C1 (stereo not drawn),1.2,-2,.,i,0.72,-3,-7,1.4,1.0
Cc1cc(C)n2c3c(c(C#N)c2n1)CC(C)(C)OC3,-73,7,-24,.,0.75,.,.,.,-0.6
CCOC(=O)C1CCCN(C(=O)c2ccc(-c3ccccc3Cl)o2)C1 (stereo not drawn),3.0,6,.,i,0.67,-20,-32,-2.3,-0.2
CC(=C/c1ccccc1)/C=N/NC(=O)c1ccc2nc[nH]c2c1,.,-5,-5,.,.,.,.,.,0.4
O=c1cc(COc2ccccc2[N+](=O)[O-])nc2sccn12,4.8,.,.,i,0.67,10,2,-6.4,.
Fc1ccc(-c2nnc(SCc3cccnc3)o2)cc1,1.4,-10,-4,i,0.69,-9,-16,-5.4,-1.4
CC(C)c1ccc(NC(=S)NNc2ccc(Cl)c(C(=O)O)c2)cc1,1.8,2,36,i,0.66,10,-4,4.0,-2.5
CCCCNCc1cc(OC)c(OCC(N)=O)cc1Br,0.9,-1,-6,.,0.72,.,.,.,0.5
CCOc1ccccc1NC(=O)CC1NCCNC1=O (stereo not drawn),1.9,-2,-15,.,0.68,.,.,.,5.5
CNC(=S)NNc1nc(-c2ccccc2)c2cc(Cl)ccc2n1,3.4,2,23,i,0.68,-8,-9,-0.7,-2.0
O=S(=O)(c1ccccc1)c1nc(-c2ccco2)oc1NCCCN1CCOCC1,6.0,1,17,.,0.77,.,.,.,1.8
Cc1cccc(Nc2nnc(SCC3CCCCO3)s2)c1C (stereo not drawn),0.8,-8,-4,i,0.66,-21,-33,-10,-4.5
O=S(=O)(/N=C(/c1ccccc1Cl)N1CCOCC1)c1ccccc1,.,-9,-1,i,.,8,4,2.5,-0.4
O=C(c1cc(COc2cccc(C(F)(F)F)c2)on1)N1C[C@@H]2CCC[C@H]1C2,-2.2,6,-5,i,0.68,-47,-80,-12,0.4
COc1ccc(OCc2cc(C(=O)N(C)Cc3nnc(C)o3)no2)c(Cl)c1,1.7,-2,-5,i,0.67,1,0,-2.6,-4.2
CCc1ccc(C2NC(=S)NC3=C2C(=O)CCC3)cc1 (stereo not drawn),4.9,-8,-9,i,0.7,4,3,-7.0,0.0
Cc1ccc(S(=O)(=O)NCC(=O)N(c2ccccc2)C(C(=O)NCc2ccccc2)c2ccco2)cc1 (stereo not drawn),0.5,3,.,i,0.68,-12,-21,16,0.9
CC(C)NC(=O)COc1ccccc1C#N,-1.6,-8,-9,i,0.68,19,15,2.7,6.8
CCOC(=O)c1ccc(N2NC(=O)/C(=C/c3ccc(OC(=O)c4ccco4)c(OC)c3)C2=O)cc1,16,.,37,.,0.68,.,.,.,.
Cc1csc(NC(=O)c2cccc(S(=O)(=O)N3CCCCC3)c2)n1,0.6,5,-3,.,0.67,.,.,.,-0.2
O=C1CCC(C(=O)Nc2ccc(OC(F)F)cc2)N1 (stereo not drawn),2.7,-3,.,.,0.7,.,.,.,0.2
Cc1c[n+]([O-])cc(C)c1Oc1ccccc1,-2.4,-4,0,i,0.67,3,16,8.2,0.6
CCOC(=O)C1CCN(C(=O)c2sc3nc(C)nc(N4CCC(C)CC4)c3c2C)CC1,2.6,-1,-11,.,0.68,.,.,.,-2.4
O=C(NC(=S)Nc1ccc(S(=O)(=O)Nc2nccs2)cc1)c1ccccc1,0.5,9,3,.,0.68,.,.,.,1.1

# Next part:
SMILES,UCH37 DUB inh,Beta2AR agonist,ALR H2O2 inh,FGF22 binding,Ecoli growth,Ecoli rRNA inh,Ecoli rRNA inh OD600,Ecoli rRNA inh RFP,HNF4A DNA FP
COc1ccc(Br)cc1S(=O)(=O)Nc1ncccc1C,-4.3,-1,-9,+,0.71,10,2,-3.0,-3.6
CSCCCNC(=O)c1ccccc1OC1CCN(S(C)(=O)=O)CC1,-0.4,1,-5,i,0.68,15,14,1.0,-2.3
CCOC(=O)N1CCN(C(=O)CS(=O)(=O)c2cn(Cc3ccccc3C)c3ccccc23)CC1,-2.7,-6,-4,.,0.75,.,.,.,-1.6
CCCNCC(=O)Nc1sc2c(c1C(=O)Nc1c(C)n(C)n(-c3ccccc3)c1=O)CCCC2,.,.,.,i,.,3,12,-2.8,2.6
CCN(CC)c1ccc(S(=O)(=O)N2CCOCC2)cc1NS(C)(=O)=O,-0.6,-8,9,i,0.67,4,4,1.1,0.5
CCCNC(=O)CC1C(=O)N(Cc2ccccc2)C(C)c2nc3ccccc3n21 (stereo not drawn),6.8,-2,7,.,0.73,.,.,.,0.8
Cc1csc(NC(=O)c2ccccc2)n1,1.1,-5,1,i,0.69,3,8,-0.1,1.5
O=C(CCC(=O)N1CCOc2ccccc21)Nc1ccccc1Br,5.9,-6,18,i,0.71,-2,-16,-5.0,2.1
O=C(Cn1c(=O)cnc2ccccc21)Nc1cccc(S(=O)(=O)N2CCCCC2)c1,-12,17,-2,i,0.71,5,-18,-17,9.5
CCOC1=C2CN(S(=O)(=O)c3ccc(C)cc3)C(c3cccc(Cl)c3)CC2N(S(=O)(=O)c2ccc(Cl)cc2)C(c2ccccc2)C1 (stereo not drawn),.,.,.,i,.,10,9,-2.2,-4.0
Cc1cccc(CSc2nnc(CCNC(=O)OC(C)(C)C)o2)c1,.,-8,-4,i,.,.,.,.,-0.1
CC(C)[C@@H]1Cc2[nH]n(C)c(=O)c2[C@H](c2ccc(F)cc2)O1,.,.,.,i,.,13,7,1.5,-0.2
CSc1ccccc1OCc1cc(C(=O)NCc2cccc(C)n2)no1,0.6,4,-3,i,0.73,0,-2,2.3,-0.5
COc1ccc(NC(=O)CSCC(=O)Nc2sccc2C#N)cc1,4.9,16,99*,i,0.69,-2,0,29,14
Fc1ccc(COc2ccc3ccccc3c2CNc2nn[nH]n2)cc1,.,-2,.,i,.,20,30,9.7,2.4
O=C(O)CSCC(=O)Nc1ccccc1SCCS(=O)(=O)c1ccc(Cl)cc1,2.1,4,-3,i,0.71,8,13,5.5,1.9
CCCc1c(-c2ccc(F)cc2F)ncn1Cc1ccccc1OC,.,.,.,i,.,-32,-76,-20,2.3
CCCNC(=O)Nc1nc2ccccc2s1,1.1,-8,-3,i,0.67,-39,-60,-14,-2.2
COc1cc(CCN2C(=O)c3cccc4cccc(c34)C2=O)c(S(=O)(=O)N2CCC(C)CC2)cc1OC,-49,5,-6,i,0.7,-2,-8,-1.3,-2.9
CN(C)c1ccc(C(=O)NNC(=O)c2ccc(Cl)cc2)cc1,3.4,-4,5,i,0.66,-13,7,-1.9,2.9
COc1ccc(CCNC(=O)c2cc(-c3cc(C)cc(C)c3O)n[nH]2)cc1OC,3.1,16,50,i,0.67,-24,-9,17,-3.5
Cc1cc(C(=O)Cn2nnc3ccccc3c2=O)c(C)n1Cc1cccs1,2.1,15,.,.,0.66,.,.,.,-0.5
OCCN1CCN(c2cc(C(F)(F)F)nc3c(F)cccc23)CC1,9.2,1,-1,i,0.67,-1,-4,-0.4,1.5
COCC(C)n1c(SCC(=O)NC(=O)Nc2ccc3c(c2)OCCO3)nc2ccccc2c1=O (stereo not drawn),1.5,-2,-1,.,0.7,.,.,.,-0.2
CC(Oc1ccccc1)C(=O)Nc1nc(-c2ccccn2)cs1 (stereo not drawn),0.3,-11,.,i,0.66,-55,-76,-16,-3.0

# Limited to Ecoli rRNA inh and HNF4A DNA FP (2 entries from above):
smiles | Ecoli rRNA inh | HNF4A DNA FP
O=C(CCC(=O)N1CCOc2ccccc21)Nc1ccccc1Br | -2 | 2.1
OCCN1CCN(c2cc(C(F)(F)F)nc3c(F)cccc23)CC1 | -1 | 1.5

# Carrying on.
SMILES,UCH37 DUB inh,Beta2AR agonist,ALR H2O2 inh,FGF22 binding,Ecoli growth,Ecoli rRNA inh,Ecoli rRNA inh OD600,Ecoli rRNA inh RFP,HNF4A DNA FP
O=C(NC1CCN(Cc2ccc3ccccc3c2)CC1)c1ccccc1,6.2,10,.,i,0.66,13,6,2.8,1.0
Cc1ccc(S(=O)(=O)N2[C@@H](c3ccc(C(C)(C)C)cc3)C(C(=O)O)=CC[C@H]2c2ccc(Cl)cc2)cc1,15,4,.,.,0.66,4,-22,-3.1,-2.6
Cc1ccc(S(=O)(=O)Nc2c(C(=O)O)[nH]c3ccccc23)c(C)c1,-0.1,6,98*,i,0.68,1,-7,-0.9,1.0
O=C(CSc1nnc2n1CCCN2)c1ccc([N+](=O)[O-])cc1,3.0,5,97*,i,0.62,5,16,-0.7,1.1
COC(=O)C(C)n1cnc2c(nnn2Cc2ccc(Cl)cc2)c1=O (stereo not drawn),3.5,-1,-11,.,0.65,.,.,.,1.5
COc1ccc(C=O)cc1OC(=O)C1(C)Cc2ccccc2C(=O)O1 (stereo not drawn),3.0,-1,.,i,0.69,14,7,-3.1,-0.3
Cn1cc(Cl)c(-c2n[nH]c(=S)n2-c2ccc(F)cc2)n1,-2.6,-1,88*,i,0.71,17,10,2.3,0.9
CCOC(=O)c1sc(=S)n(-c2ccccc2)c1N(C(C)=O)C(C)=O,8.1,1,3,.,0.65,26,16,3.4,-1.6
COc1ccc2cc(CCNS(=O)(=O)c3c(C)cc(C)cc3C)c(=O)[nH]c2c1,-1.9,-7,3,i,0.71,0,-14,13,2.0
O=c1oc2cc(OCc3ccc(C(F)(F)F)cc3)ccc2cc1-c1ccccn1,-124,-2,-3,.,0.72,.,.,.,0.2
CC1Sc2ccc(S(=O)(=O)N3CCN(c4ccccc4)CC3)cc2NC1=O (stereo not drawn),0.4,-4,5,i,0.71,9,1,3.5,-0.1
COCCn1c(SCC(=O)NC2CCCC2)nc2cccnc21,2.5,-120,-32,i,0.72,10,7,-3.9,1.6
O=S(=O)(NC1=NCCC1)c1cccc(NC(=S)Nc2ccc(OC(F)F)cc2)c1,4.5,3,35,i,0.67,-8,-12,1.4,-0.5
O=[N+]([O-])c1cc(/C=N\O)ccc1Oc1ccc(F)cc1,.,-6,-1,i,.,-12,-7,-6.1,1.9
CCc1nc2sc3c(c2c(=S)[nH]1)CC(C)(C)OC3,3.3,5,.,i,0.68,8,3,3.4,-0.1
Cc1cc2cc(OCc3ccccc3)ccc2n1C,5.7,4,.,.,0.68,8,9,0.3,3.3
COc1ccc(CCNCc2c(OC)ccc3ccccc23)cc1OC,3.4,6,-19,i,0.68,0,4,-4.3,-1.7
COc1cc(Cl)ccc1NC(=O)COc1ccccc1C(=O)N1CCN(c2ccc(O)cc2)CC1,1.5,-2,67,.,0.72,.,.,.,2.0
Cc1occc1C(=O)NCc1ccc(C(=O)O)o1,4.1,3,20,.,0.75,.,.,.,-4.2
COc1cccc(NC(=O)Nc2ccc3nsnc3c2)c1,-23,10,-9,i,0.52,-36,-47,11,1.3
CC(C)c1nc(SCC(=O)Nc2ccc(C(=O)O)cc2)c2c3c(sc2n1)CCCC3,1.7,-13,99*,i,0.61,-1,-6,-8.8,-1.7
CCNC(=O)COC(=O)/C=C/c1cccc(F)c1,0.6,8,2,i,0.7,5,0,-2.8,1.1
